Bioassay records: PubChem, National Center for Advancing Translational Sciences (NCATS)
Sfp inh: inhibitors of Bacillus subtilis Sfp phosphopantetheinyl transferase | Q9F4F7 | Biochemical Sfp PPTase activity, qHTS | Potency, µM, for inactives: max response, negative = inhibition, hits mostly inhibitors | 310,000 compounds, 3.5% hits | AID 1490; active = well fitted inhibition curve with a large enough effect; inconclusive = small, poorly fitted or top-dose-only effect, or another doubt; inactive = no such curve, though single readings can be large or run the other way;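 note: the enzyme is Sfp with the accession as filed and its product quenches rhodamine fluorescence; potency is the fitted concentration of half-maximal effect; 0% = enzyme reaction without inhibitor and -100% = no enzyme wells; top concentration of the series not given in the record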
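Sfp 15 nM + cpd, 15 min RT; start w/ rhodamine-CoA 5 uM, BHQ-2-YbbR 12.5 uM (final); 50 mM Hepes pH 7.6, 10 mM MgCl2, 0.01% NP-40, 0.01% BSA; read 525/598 nm at 0 and 30 min.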
TRPML1 ag: human mucolipin-1 channel agonism; Q9GZU1; TRPML1-expressing cells, Ca2+ dye fluorescence, FDSS; host cell line not named in the record; reference of the full effect not given here; activation, % (concentration not given with the values); 410,000 compounds, 0.12% hits; AID 624414; in the data active = activation above about 50%; inconclusive = about 30% to 50%; inactive = below about 30%; note: 0% is about no effect; the text of the record puts the active cut at 80%
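Kinetic FDSS Ca2+ read in Tet-induced TRPML1-DL cells (ABD Ca8 dye plus quencher, 45-90 min RT loading): baseline, then compound, then 110 s agonist window; EC80 agonist 54-4 at 4uM final added afterwards for a 110 s antagonist window.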
TRPML1 blocker: human mucolipin-1 channel inhibition; Q9GZU1; TRPML1-inducible cells, Ca2+ dye fluorescence, FDSS; stronger effect = lower value; inhibition of EC80 agonist-evoked calcium signal; activity change, negative = inhibition, % (no concentration beside the values); 390,000 compounds, 0.02% hits; in the data active means activity change below about -50%; inconclusive means about -30% to -50%; inactive means above about -30%;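 note: stimulus is agonist 54-4 at its EC80 concentration; % is set by controls: 0 for no effect and ±100 for the full control effect; compound concentration not given in the record; the text of the record puts the active cut at -80%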
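Tet-induced TRPML1-DL cells loaded with Ca8 no-wash calcium dye were read kinetically on FDSS. Compound addition was followed by EC80 agonist 54-4 (4 uM final); inhibition was read over 110 s.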
PINK1 expr mod: changes PINK1 expression; PINK1 immunofluorescence, high-content cytometry, 24 h; 410,000 compounds, 0.2% hits; Potency, µM (doses to about 76.6 µM), for inactives: top-dose activation (PINK1 increase), hits mostly activators; active = well fitted activation curve with a large enough effect; inconclusive = small, poorly fitted or top-dose-only effect; inactive = flat fitted curve, though single readings scatter; cell line not stated here;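 note: potency is the fitted concentration of half-maximal effect; % of control where 0% means no effect; nearly all actives have a fitted effect of over 65% in size; a mitochondrial uncoupler was the plate control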
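Readout is PINK1 immunofluorescence, quantified alongside mitochondrial, cell and nuclear markers by laser-scanning microplate cytometry. Cells from a stable line were exposed to compound titrations (5 concentrations) for 24 hours, with CCCP controls.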
ClpP mod: qHTS Assay for Activators of ClpP | ATP-dependent Clp protease proteolytic subunit (Bacillus subtilis (strain 168)), P80244 | 340,000 compounds, 1.9% hits | Potency, µM (series often up to 57.5 µM), inactives show top-dose activity change, negative = active | purified B. subtilis ClpP, FRET peptide cleavage, 20 min; active = well fitted falling curve with a large enough effect; inconclusive = small, poorly fitted or top-dose-only effect; inactive = no such curve, though single readings can be large or run the other way; note: potency is the fitted concentration of half-maximal effect; the source files actives as falling curves though it sought activators and does not explain the sign; nearly all actives have a fitted effect of over 65% in size; many hits overshoot -100%
Target sequence (P80244 whole entry, looked up): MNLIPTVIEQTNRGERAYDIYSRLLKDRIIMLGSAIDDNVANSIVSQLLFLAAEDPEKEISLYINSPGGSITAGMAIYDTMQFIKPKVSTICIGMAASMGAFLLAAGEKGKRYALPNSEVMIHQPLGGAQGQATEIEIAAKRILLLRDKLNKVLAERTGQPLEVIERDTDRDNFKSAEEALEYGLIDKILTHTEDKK
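Buffer: 100 mM Tris/HCl pH8, 100 mM KCl, 0.05% low protease BSA, 2.5% glycerol, 0.01% Tween-20. ClpP 10 microg/mL final; 20 min RT; delta FRET normalized to ADEP and DMSO controls.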
Menin MLL FP FL: menin-MLL binding inhibition, fluorescein peptide | Fluorescence polarization, fluorescein-MLL peptide displacement from menin | FP activity change, % at 61.4 µM | 290,000 tested, under 10 active; inconclusive = falling polarisation curve, or a change in total fluorescence; inactive = total fluorescence flat and polarisation flat or rising; no compound was filed as active; the % refers to the polarisation; negative = inhibition;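 note: % of control where 0% means no effect; inhibitors lower the polarisation; unlabelled MLL peptide was the positive control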
TRPV1 PAM: human TRPV1 potentiation; potentiation, % at 8.33 µM; 320,000 compounds, 0.02% hits; TRPV1-expressing cells, Fluo-8 calcium influx, capsaicin EC20 potentiation; host cell line not named in the record; control for the full effect not named in the record; Q8NER1; active means potentiation above 80%; inconclusive means 30% to 80%; inactive means below 30%; note: 0% is about no effect
Target sequence (Q8NER1 whole entry, looked up): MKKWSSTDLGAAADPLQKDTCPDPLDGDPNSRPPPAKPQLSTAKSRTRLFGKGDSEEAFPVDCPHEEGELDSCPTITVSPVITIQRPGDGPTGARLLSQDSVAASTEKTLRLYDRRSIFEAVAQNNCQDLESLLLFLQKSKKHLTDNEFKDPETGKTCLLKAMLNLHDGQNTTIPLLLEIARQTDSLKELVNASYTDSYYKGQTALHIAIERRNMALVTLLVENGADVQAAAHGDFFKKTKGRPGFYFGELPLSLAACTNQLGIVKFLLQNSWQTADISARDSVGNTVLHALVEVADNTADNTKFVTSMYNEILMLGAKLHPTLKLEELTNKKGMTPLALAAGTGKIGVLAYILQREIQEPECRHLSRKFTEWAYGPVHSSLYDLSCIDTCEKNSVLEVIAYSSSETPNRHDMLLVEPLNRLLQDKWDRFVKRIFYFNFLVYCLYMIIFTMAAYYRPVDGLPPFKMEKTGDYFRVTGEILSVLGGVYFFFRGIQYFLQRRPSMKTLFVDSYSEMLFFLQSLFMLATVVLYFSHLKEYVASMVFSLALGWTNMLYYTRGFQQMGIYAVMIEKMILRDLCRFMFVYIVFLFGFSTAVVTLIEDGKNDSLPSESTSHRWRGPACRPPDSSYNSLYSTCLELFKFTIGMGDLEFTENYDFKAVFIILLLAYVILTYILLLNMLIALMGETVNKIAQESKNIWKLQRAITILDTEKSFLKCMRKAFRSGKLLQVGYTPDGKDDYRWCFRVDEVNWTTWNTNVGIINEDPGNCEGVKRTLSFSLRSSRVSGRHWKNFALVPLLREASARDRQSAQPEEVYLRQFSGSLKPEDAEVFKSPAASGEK
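Fluo-8 calcium influx in TRPV1-expressing cells, kinetic read (ex 480/em 520 nm). Compound added and read 3 min for agonist activity, followed by capsaicin at EC20 final and 2 min further read for enhancement.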
An asterisk follows results filed as active; ? = inconclusive; nt = no result given; [ ] = another dose, or the depositor's remark.

SMILES	Sfp inh	TRPML1 ag	TRPML1 blocker	PINK1 expr mod	ClpP mod	Menin MLL FP FL	TRPV1 PAM
COc1ccc(OC)c(N(CC(=O)NN=C2CCN(C)CC2)S(=O)(=O)c2ccccc2)c1	16%	-0.4	3	3.0%	nt	0.4	0
CCCCOC(=O)Nc1nnc(CCc2ccccc2)s1	15%	-0.4	8	1.1%[38.3 µM]	?	-2.3	1
CCOC(=O)Cc1nnc(NC(=O)c2cccc(OCC)c2)s1	26%	1.2	40	3.0%	-4.3%	3.5	8
Cc1cc(C)c(C#N)c(SCC(=O)c2cc(C)n(CCc3ccccc3)c2C)n1	0%	1.7	2	1.2%	-8.0%	10	9
Cc1ccc(-c2cc(C(=O)N/N=C/c3c[nH]c4ccccc34)[nH]n2)cc1	5%	-0.2	8	-0.2%	nt	4.0	2
Cc1ccc(S(=O)(=O)N(C)C[C@@H]2Oc3ncc(Br)cc3C(=O)N([C@H](C)CO)C[C@H]2C)cc1	nt	0.3	-9	2.8%	2.0%	nt	nt
COc1ccc(N(CC(=O)N2CCC(C)CC2)S(=O)(=O)c2c(C)nn(C)c2C)cc1	5%	0.0	7	-1.0%	-0.6%	-0.1	nt
O=C(Nc1ccc(S(=O)(=O)N2CCCC2)cc1Cl)C1=COCCO1	27%	0.5	-13	3.2%[38.3 µM]	-0.6%	1.1	-19
Cc1nc(C(=O)N2CCCC(N3CCN(c4ccccc4C)CC3)C2)cs1 (configuration not stated)	-2%	0.5	-10	-1.4%	-7.3%	nt	20
COc1ccc(Cl)cc1NC(=O)CSC1=Nc2ccccc2C2=NC(CCC(=O)NCc3ccco3)C(=O)N12 (configuration not stated)	nt	1.6	8	1.3%	-7.9%	nt	nt
CN(C)c1cc[n+](CC(=O)c2ccc(OC(F)F)cc2)cc1	-3%	0.0	38	3.1%	nt	6.4	19
COc1ccc(-n2c(CN3CCN(c4ccccc4OC)CC3)nc3ccc([N+](=O)[O-])cc3c2=O)c(OC)c1	-12%	0.4	-12	2.4%	-1.5%	-3.1	-9
COc1ccnc(N=CNOCc2cccc(Cl)c2Cl)c1C#N	2%	-0.1	-8	16%	?	1.6	-2
CC(C)(CNC(=O)c1ccc(NS(=O)(=O)c2ccc(F)cc2)cc1)N1CCOCC1	-6%	0.1	-10	3.9%	-1.8%	nt	-16
Cc1cccc(C)c1OCc1nnc(SCC(=O)Nc2nccs2)n1-c1ccccc1	2%	0.2	-11	11%[38.3 µM]	-0.8%	2.4	1

Ordered by formula weight (low to high): part of the list above
SMILES	Sfp inh	TRPML1 ag	TRPML1 blocker	PINK1 expr mod	ClpP mod	Menin MLL FP FL	TRPV1 PAM
CCCCOC(=O)Nc1nnc(CCc2ccccc2)s1	15%	-0.4	8	1.1%[38.3 µM]	?	-2.3	1
CN(C)c1cc[n+](CC(=O)c2ccc(OC(F)F)cc2)cc1	-3%	0.0	38	3.1%	nt	6.4	19
O=C(Nc1ccc(S(=O)(=O)N2CCCC2)cc1Cl)C1=COCCO1	27%	0.5	-13	3.2%[38.3 µM]	-0.6%	1.1	-19

(next part)
SMILES	Sfp inh	TRPML1 ag	TRPML1 blocker	PINK1 expr mod	ClpP mod	Menin MLL FP FL	TRPV1 PAM
COc1ccc(-c2nn(-c3ccccc3)cc2/C=N/NS(=O)(=O)c2ccccc2)cc1	13%	1.4	6	0.3%	-2.0%	1.3	1
CC(NC(=O)Cn1c(NCCO)nc2ccccc21)c1ccccc1 (configuration not stated)	10%	0.5	10	-0.9%	0.1%	1.0	14
O=C(NC(=S)Nc1ccc(S(=O)(=O)N2CCCCCC2)cc1)c1cccs1	-28%	-0.1	-6	7.1%	0.6%	11	-3
COc1ccc(C(C)=O)cc1COc1cccc2cccnc12	4%	nt	nt	1.2%	-8.9%	2.9	-5
COc1ccc(C(=O)NC2=NCCS2)cc1S(=O)(=O)N1CCOCC1	nt	0.2	5	-0.2%	-1.6%	nt	nt
CCOC(=O)C1CCN(S(=O)(=O)c2cccc(-c3cn4ccccc4n3)c2)CC1	?	-0.7	-9	2.6%	-17%	-0.5	-1
O=c1[nH]nc(CNc2ccc(O)cc2)c2ccccc12	?	-0.4	5	3.6%	0.8%	8.7	6
C=CCNC(=O)C12CC3CC(C1)CC(C(=O)NCC=C)(C3)C2	17%	0.1	-22	0.6%	0.7%	1.7	5
CCc1ccc(C2CC(c3cccc(OC)c3)n3nc(N)nc3N2)cc1 (configuration not stated)	12%	0.5	10	1.1%	2.3%	-1.4	21
S=c1[nH]nc(CN2CCCCC2)n1-c1ccc(Cl)cc1	14%	0.2	-4	1.1%	nt	0.4	5
CCCCCCn1c(=O)[nH]c2nc3cc(N)c(C)cc3nc2c1=O	?	70*	-8	?	-3.0%	2.2	2
COc1ccc(-n2cnc3cc([N+](=O)[O-])ccc32)cc1	2%	2.7	10	-1.4%	nt	-6.3	3
CCC(C)(C)NC(=O)C(c1ccc(OC)cc1)N(C(=O)CCC(=O)Nc1cc(C)on1)c1ccccc1OC (configuration not stated)	-1%	-0.3	18	0.3%	nt	2.1	1
CCOc1ccc(N(CC(=O)NC2CCCCCC2)S(=O)(=O)c2c(C)[nH]c(=O)[nH]c2=O)cc1	26%	0.0	-4	0.7%	-2.8%	4.6	15
O=C(Cc1cccc(NC(=O)C2CCCN(C(=O)C3CCCC3)C2)c1)Nc1cccc(C(=O)N2CCCCC2)c1 (configuration not stated)	nt	4.0	-3	-0.4%	0.0%	nt	nt
CC1CCC(NC(=O)c2cc(C3CC3)nn2-c2ccccc2)CC1 (configuration not stated)	nt	1.1	2	?	0.9%	nt	-19
O=C(Cc1ccccc1Cl)Nc1ccc(S(=O)(=O)N2CCOCC2)cc1	nt	0.8	9	0.5%	1.4%	nt	-20
CCn1cc(C(=O)NCCCOC)c(=O)c2cc(S(=O)(=O)N3CCc4ccccc4C3)ccc21	nt	-0.4	69	0.9%	-4.1%	nt	nt
CC[n+]1ccccc1/C=C/Nc1ccccc1	-5%	0.3	-15	-1.8%	-0.3%	-4.1	-7
O=C(CN1C(=O)C2CC=CCC2C1=O)Nc1ccc(S(=O)(=O)NC2=NCCCCC2)cc1 (configuration not stated)	4%	-0.8	7	2.3%	0.4%	2.1	12
CC(=O)Oc1ccc2c(C)c(CC(C)O)c(=O)oc2c1 (configuration not stated)	22%	0.6	10	0.9%	60%	1.1	-11
CN(c1ccc(C(=O)O)cc1)S(=O)(=O)c1ccccc1	10%	0.6	69	1.5%	0.8%	2.5	-6
CCOC(=O)NC(=O)COC(=O)c1ccc(O)cc1	8%	-1.2	1	-0.4%	2.9%	-5.3	8
Cc1ccc(S(=O)(=O)/N=C(\N)Nc2nc(C)c3ccc(C)cc3n2)cc1	27%	1.9	11	2.3%[38.3 µM]	?	3.9	17
Cc1ccc(-n2nc(C(=O)Nc3ccc(F)cc3Cl)c(=O)n(C)c2=O)cc1	nt	0.0	-6	1.4%	1.2%	nt	nt
CCn1nc(C)c(Br)c1Nc1ccc(Br)cc1	-1%	1.8	-5	-1.0%	nt	0.2	-2
COC(=O)c1cnc(N2CCCN(S(=O)(=O)c3ccccc3)CC2)nc1C(F)(F)F	-4%	4.8	44	-3.1%	-8.5%	4.5	-7
COc1cc(CN2CCNC(=O)C2CC(=O)NC2CCCC2)cc(OC)c1 (configuration not stated)	-1%	0.2	3	2.1%	-1.1%	1.3	-4
O=C(Nc1ccc(F)cc1)N(Cc1ccco1)Cc1cc2cc3c(cc2[nH]c1=O)OCO3	-4%	1.5	-4	7.9%	32µM*	1.9	-3
Cc1cccc(NC(=O)CSCc2c(C)noc2C)c1C	4%	2.5	-5	0.6%	1.2%	0.4	-8
CCOC(=O)c1c(C)[nH]c(C)c1S(=O)(=O)N1CCC(C(=O)Nc2ccc(C)c(Cl)c2)CC1	nt	-0.6	-12	5.6%	1.1%	nt	nt
Cc1ccc(-c2csc3nc4cc(C(=O)NC5CCC(O)CC5)ccc4c(=O)n23)cc1 (configuration not stated)	56µM*	0.8	-2	3.2%	3.8%	-1.3	-17
COc1ccc(-n2nc3c(c2NC(=O)C2CC(=O)N(c4ccccc4)C2)CS(=O)(=O)C3)cc1 (configuration not stated)	12%	0.6	19	0.4%	0.6%	nt	-8
CCOC(=O)C1(C)CCCCN1C(=O)c1ccoc1 (configuration not stated)	nt	-0.2	nt	1.8%	1.6%	nt	nt
Cc1cc(C)c(C#N)c(SCCS(=O)(=O)c2ccc(C(C)(C)C)cc2)n1	-2%	0.4	7	2.0%	-0.4%	0.9	-4
CCCCN1CCc2c1nc1ccc(Br)cc1c2N	-20%	3.9	-16	7.8%[38.3 µM]	?	11	6
N#CCCN(CCC#N)c1nncs1	7%	-0.4	-7	-1.0%	-3.3%	-0.1	-7
O=C(CCS(=O)(=O)c1ccc2c(c1)NC(=O)CS2)NCCc1ccc(Cl)cc1	12%	0.2	12	-2.0%	-1.3%	nt	7
Cc1cccc(C(=O)NC2C(=O)NNC2c2ccc(Cl)cc2)c1 (configuration not stated)	-11%	0.0	2	-0.6%	nt	-4.6	-3
CCN(C(=O)COC(=O)Cn1cnc2c1c(=O)n(C)c(=O)n2C)C1CCS(=O)(=O)C1 (configuration not stated)	3%	0.3	8	-0.2%	0.0%	nt	3
CCC(=O)Nc1ccc(N2CCCCC2)c(C(=O)Nc2ccccc2C)c1	-6%	0.7	17	-3.7%[38.3 µM]	-3.4%	-1.2	5
Oc1ccc(Br)cc1-c1cc(-c2ccc(Cl)cc2)n[nH]1	6%	1.4	9	?	-1.0%	-0.1	-8
Cc1ccc(S(=O)(=O)n2cnc3cc([N+](=O)[O-])ccc32)cc1C	4%	-0.2	26	0.9%	0.4%	-1.5	-9
CCN(CC)CCN(C(=O)C1=COCCO1)c1nc2c(OC)ccc(OC)c2s1	-13%	-0.4	-5	-0.6%	2.7%	-1.4	0
Cc1ccc(S(=O)(=O)/N=S(\C)C(C)C)cc1 (configuration not stated)	0%	-0.3	1	-0.7%	0.8%	4.5	1
CSc1ncc(C(=O)Nc2cccc(C)c2C)c(-c2ccccc2)n1	nt	1.5	-9	2.4%	-7.0%	nt	nt
O=C(CSc1nc(=O)n2ccccc2n1)Nc1cccc2ccccc12	nt	0.3	-1	-1.0%	0.3%	nt	24
CC(C)(CC(=O)O)CC(=O)O	0%	-0.2	1	0.1%	-1.0%	-5.3	-5
Cc1ccc(NC(=O)c2cc3c([nH]c2=O)CC(C)(C)CC3=O)cc1	nt	-0.3	nt	1.3%	-5.5%	nt	nt

The order is random, and some 4.4% of all compounds hit somewhere here.
